RE007 growth inh – less growth of the S. pombe RE007 Vpr strain. S. pombe RE007 Vpr strain, BacTiter-Glo ATP luminescence, 24 h; control for the full effect not named in the record. Potency, µM (highest dose often 92.2 µM), for inactives: top-dose activity change, negative = less growth. 360,000 tested, 0.21% active; active = well fitted falling curve with a large enough effect; inconclusive = small, poorly fitted or top-dose-only effect; inactive = no such curve, though single readings can be large or run the other way;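 note: % is set by controls: 0 for no effect and ±100 for the full control effect; nearly all actives have a fitted effect of over 50% in size; the assay follows cell death caused by Vpr and the record does not say whether a fall means rescue or toxicity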
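Fission yeast strain RE007, carrying one chromosomally integrated HIV-1 vpr copy, was seeded at OD 0.01 in PMG+AL medium with 23 nL pinned compound. After 24 h at 30 °C and 99% humidity, viability was read by BacTiter-Glo luminescence.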
Lassa entry inh – Lassa virus entry inhibition. 300,000 tested, 1.2% active. Potency, µM (titrated, usually from 37.9 µM), for the others: at the highest dose activity change, negative = inhibition, hits mostly inhibitors. Lassa virus pseudotype entry inhibition, cell reporter; control for the full effect not named in the record; active means well fitted inhibition curve with a large enough effect; inconclusive means small, poorly fitted or top-dose-only effect, or effect the other way; inactive means flat fitted curve, though single readings scatter; tested in HEK293 cells; note: % is set by controls: 0 for no effect and ±100 for the full control effect; nearly all actives have a fitted effect of over 50% in size; luciferase read-out
NS1 function inh – blocks influenza NS1 protein function | S. cerevisiae slowed by influenza A NS1, growth recovery by OD600 | Potency, µM (doses to about 46.1 µM), inactives show at the top dose activity, positive = more growth | 270,000 tested, 0.4% active; active means well fitted rising curve with a large enough effect; inconclusive means small, poorly fitted or top-dose-only effect; inactive means no such curve, though single readings can be large or run the other way; note: nearly all actives have a fitted effect of over 50% in size
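Read-out: OD600 growth recovery of NS1-expressing budding yeast. Cells grown overnight at 30C in -URA glucose medium, washed, resuspended and diluted 1:100 in 2% galactose assay medium, pH 6.0. Same strain lacking NS1 served as positive control.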
2A StopGo – lowers the luciferase signal of an FMDV 2A StopGo reporter | human cells with a luciferase reporter of 2A StopGo recoding; control for the full effect not named in the record | Potency, µM (top dose mostly 57.9 µM), for the others: at the highest dose signal change, negative = less light | 410,000 tested, 1.2% active; active = well fitted falling curve with a large enough effect; inconclusive = small, poorly fitted or top-dose-only effect; inactive = no such curve, though single readings can be large or run the other way; tested in HEK293T cells; note: % is set by controls: 0 for no effect and ±100 for the full control effect; nearly all actives have a fitted effect of over 45% in size; luciferase light after 4 h
Cruzain inh noDet – cruzain (T. cruzi) inhibition without detergent; 200,000 tested, 2.3% active; P25779; Potency, µM, for inactives: max response, negative = inhibition, most hits filed as inhibitors; purified cruzain, Z-FR-AMC fluorescence, no detergent;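 note: plate controls were enzyme without inhibitor for no effect and buffer without enzyme for full effect; nearly all actives have a fitted effect of over 40% in size; top concentration of the series not given in the record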
Target sequence (P25779 123-467 limits assumed): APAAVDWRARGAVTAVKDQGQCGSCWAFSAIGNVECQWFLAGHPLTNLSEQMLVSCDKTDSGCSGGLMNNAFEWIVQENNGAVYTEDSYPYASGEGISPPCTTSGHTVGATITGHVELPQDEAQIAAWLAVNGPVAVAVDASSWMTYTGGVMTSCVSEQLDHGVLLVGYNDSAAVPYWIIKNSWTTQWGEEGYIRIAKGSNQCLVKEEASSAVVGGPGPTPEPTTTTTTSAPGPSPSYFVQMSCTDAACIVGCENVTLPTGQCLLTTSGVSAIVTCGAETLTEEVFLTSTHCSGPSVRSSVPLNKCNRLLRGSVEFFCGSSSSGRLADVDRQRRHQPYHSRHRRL
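Detergent-free condition (0.00005% Triton X-100) in acetate buffer pH 5.5 with DTT. 1.5 nM enzyme and compound were pre-mixed 15 min, then 2 uM Z-FR-AMC substrate added; reaction progress from fluorescence change between first and third reads (60 s).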
Cruzain inh Det – cruzain (T. cruzi) inhibition with detergent | Potency, µM, inactives show max response, negative = inhibition, usual class: inhibitors | purified cruzain, Z-FR-AMC fluorescence, 0.01% Triton | AID 1478 | 200,000 tested, 0.43% active;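 note: plate controls were neutral wells for no effect and buffer without enzyme for full effect; nearly all actives have a fitted effect of over 40% in size; top concentration of the series not given in the record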
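Purified cruzain (1.5 nM final) was preincubated with compounds for 15 min at room temperature in 100 mM sodium acetate pH 5.5, 5 mM DTT, 0.01% Triton X-100. Reaction started with 2 uM Z-FR-AMC; AMC fluorescence change over 60 s gave activity.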
Marburg entry inh – inhibitors of Marburg virus binding or cell entry; Marburg virus pseudotyped entry inhibition, cell reporter; control for the full effect not named in the record; about a third of the inactives were read at about 46 µM; Potency, µM (top dose mostly 37.8 µM), for the others: at the highest dose activity change, negative = inhibition, hits mostly inhibitors; 300,000 tested, 1.8% active; AID 540276; active = well fitted inhibition curve with a large enough effect; inconclusive = small, poorly fitted or top-dose-only effect, or effect the other way; inactive = flat fitted curve, though single readings scatter; tested in HEK293 cells; about a fifth of its hits are not listed in these tables; note: % is set by controls: 0 for no effect and ±100 for the full control effect; luciferase read-out
SARS PLP yeast – inhibitors of SARS-CoV papain-like protease in yeast | S. cerevisiae expressing SARS-CoV PLpro, growth rescue; control for the full effect not named in the record | Potency, µM (titrated, usually from 32.9 µM), without a hit: top-dose activity, positive = growth rescue | 330,000 tested, 0.19% active | AID 485353; active means well fitted rising curve with a large enough effect; inconclusive means small, poorly fitted or top-dose-only effect; inactive means no such curve, though single readings can be large or run the other way; note: 0% is about no effect; nearly all actives have a fitted effect of over 55% in size; growth read by luminescence after 48 h
Starred values were filed as active, the others as inactive; ? = inconclusive; nt = no result given; & = joins results of further samples; [ ] = dose if it differs, or a comment. Unless noted, calls come from the whole dose curve; as a rule, active = well fitted curve in the direction sought with a large enough effect; inconclusive = small, poorly fitted or top-dose-only effect, or another doubt; inactive = no such curve, though single readings can be large; an effect the other way counts as inactive or inconclusive. Potency is the fitted concentration of half-maximal effect. Outcome played no part in choosing rows. About 4.6% of those tested had a hit in this group.

SMILES | RE007 growth inh | Lassa entry inh | NS1 function inh | 2A StopGo | Cruzain inh noDet | Cruzain inh Det | Marburg entry inh | SARS PLP yeast
N#CC(Cc1ccccc1OC(F)F)c1nc2ccccc2[nH]1 (stereo not drawn) | -7% | -2% | 1% | 5% | 0% | 0.9% | 9% | 8%
Cc1c(Cl)cccc1NC(=O)C1CC(=O)N(C2CCCC2)C1 (stereo not drawn) | 9% | -2% | nt | 1% | nt | nt | -4%[46.1 µM] | nt
COC(=O)Cc1c(C)nc2nc(NCc3c(F)cccc3Cl)[nH]n2c1=O | -12% | 7% | -6% | 0% | -7% | 3.2% | ? | 3%
O=C(NC1CCN(Cc2ccccc2)CC1)C1CCN(S(=O)(=O)c2cccc3nsnc23)CC1 | 2% | 22% | 3% | ? | 2% | 7.6% | -2%&2% | 6%
COc1ccc(-c2cc(=O)n(-c3ccc([N+](=O)[O-])cc3)[nH]2)cc1 | -17% | 16% | 12% | -12% | ? | -4.6% | ? | -60%
CCCOc1ccccc1C(=O)N1CCCCC1CCN1CCCCC1 (stereo not drawn) | nt | 6%[46.1 µM] | nt | 3% | -13% | -1.2% | ? | nt
COc1ccc(C=O)c2[nH]c3c(Cl)ncnc3c12 | -4% | nt | 1% | 0% | nt | nt | nt | 10%
O=C(NC1CCCC1)C(c1ccc(O)cc1)N(CC1CCCO1)C(=O)C1COc2ccccc2O1 (stereo not drawn) | 5% | ? | -57% | nt | 2% | -2.3% | 0%&-19% | 1%
CNC(=S)N1CCn2cccc2C1c1cccnc1 (stereo not drawn) | -9% | -7% | nt | -1% | nt | nt | -14% | 0%
COc1ccc([N+](=O)[O-])cc1NC(=O)C(C)Sc1ccccc1 (stereo not drawn) | 19% | 7% | -1% | -17% | 1% | -8.3% | -5% | 17%
CCC(=O)N(CC)c1nc(-c2ccc(OC)cc2)cs1 | -17% | 12% | -10% | ? | -3% | -5.9% | ? | -20%
Cc1nn2c(=O)cc(COC(=O)c3ccco3)nc2s1 | nt | -2%[46.1 µM] | nt | 7% | 6% | -3.1% | nt | nt
COc1ccc(/C(O)=C2/C(=O)C(=O)N(CCN(C)C)C2c2ccccc2)cc1Cl (stereo not drawn) | 2% | 5% | -10% | -14% | -9% | -6.5% | 4% | -12%
COc1cccc(-c2nc(S(=O)(=O)c3ccc(Cl)cc3)c(NCc3ccccc3)o2)c1 | nt | ? | nt | 0% | 4% | 3.5% | 4%[46.1 µM] | nt
Cc1ccc2oc(=O)n(CCOc3ccccc3Cl)c2c1 | -22% | nt | -3% | 0% | -18% | -9.8% | nt | -11%
CC(NC(=O)c1ccc(Cn2c(=O)c3cccn3c3cccnc32)cc1)c1ccccc1 (stereo not drawn) | nt | 9%[46.1 µM] | nt | -9% | -11% | 1.8% | nt | nt
CC(=O)c1ccc(NC(=O)CC(C)S(=O)(=O)c2ccc3c(c2)CCN3C(C)=O)cc1 (stereo not drawn) | -3% | ? | 3% | -13% | nt | nt | 17%[46.1 µM] | -7%
CNC(=O)c1ccc(S(=O)(=O)c2ccc(Cl)cc2)c(NC(C)=O)c1 | -13% | nt | 2% | -9% | nt | nt | nt | 1%
Cc1ccc(NC2CCCN(C(=O)CCc3ccncc3)C2)cc1C (stereo not drawn) | -18% | -12%[46.1 µM] | -31% | -9% | nt | nt | -5%[46.1 µM] | -13%
Cc1ccc(S(=O)(=O)Nc2cc(C)on2)cc1 | 2% | 4% | 13% | 17% | nt | nt | 3%[46.1 µM] | 1%
O=C(c1ccccc1)c1ccc2c(c1)OCCOCCOCCOCCO2 | -1% | nt | 4% | -8% | nt | nt | nt | -1%
O=C(c1ccco1)N(Cc1ccccc1)c1cccc([N+](=O)[O-])c1 | 3% | 3% | nt | 2% | nt | nt | 1%[46.1 µM] | 0%
COC(=O)c1sc2ncccc2c1OCc1ccccc1Cl | -6% | -12% | -5% | -1% | -5% | -2.4% | -1% | -3%
CCOC(=O)c1c(S(=O)(=O)NCC(=O)NCc2cccc(C)c2)c(C)n(C)c1C | 5% | 0%&-6%[46.1 µM] | -6% | 19%&20% | 7% | 1.1% | 28%&28%[46.1 µM] | -7%
CCN1CCc2c(C#N)c(N3CCOCC3)nc(NCCO)c2C1 | 1% | -1% | -6% | 8% | 3% | -1.1% | -20%&-20% | 0%
Cc1ccc(CNC(=O)C(=O)NCC2CCCN2S(=O)(=O)c2cc(C)ccc2C)cc1 (stereo not drawn) | 2% | ? | nt | -16% | nt | nt | ? | -7%
CN(CCC#N)C(=O)COC(=O)c1c2c(nc3ccccc13)/C(=C\c1ccco1)CC2 | -9% | ? | nt | 16% | nt | nt | ? | nt
CN(C)CCCOc1cccc(Oc2ccccc2)c1 | 2% | -3% | 7% | -1% | 1% | -0.1% | ? | -11%
COc1ccc(NC(=O)CSc2nccn2-c2cccc(OC)c2)cc1 | -3% | ? | -75% | -29% | 4% | 1.4% | ? | -10%
O=C(COC(=O)c1ccc(=O)n(Cc2ccccc2)n1)Nc1ccc2c(c1)OCCO2 | 9% | 14% | -21% | -16% | -4% | -5.3% | 0% | 13%
Nc1n[nH]c(N)c1N=Nc1ccc(Cl)cc1Cl | 3% | 0% | -4% | 62%[activator] | -2% | -20% | -8% | -8%
COc1cc2c(cc1OC)C(C)N(C(=O)c1ccc(Br)o1)CC2 (stereo not drawn) | -9% | -13% | -16% | ? | -6% | 1.9% | ? | 1%
Cc1cccc2sc(NNC(=O)c3cc(-c4cccs4)nc4ccccc34)nc12 | -12% | ? | 22% | ? | ? | -1.9% | -69% | 14%
FC(F)(F)c1ccccc1/C=N/n1c(COc2ccccc2)n[nH]c1=S | 5% | ? | 3% | 5% | nt | nt | 4%[46.1 µM] | -6%
CSc1cccc(NC(=O)C2CCCN(S(=O)(=O)c3ccc4c(c3)CCCN4C(C)=O)C2)c1 (stereo not drawn) | nt | -10%[46.1 µM] | nt | -8% | ? | -4.5% | nt | nt
O=c1c2c(nc3cc(-c4ccccc4)[nH]n13)CCS2 | -3% | -7% | 0% | 1% | -1% | 6.2% | ? | -3%
COC(=O)c1ccc2c(=O)n(CCCCCC(=O)NC(C)C)c(=O)[nH]c2c1 | 20% | ? | nt | -30%&-1% | -13% | 2.4% | 6%&6% | 4%
Cn1nc(C(=O)Nc2ccccc2N2CCOCC2)ccc1=O | -23% | -6% | nt | 0% | nt | nt | -22% | -4%
O=C(Cc1cccs1)NNC(=S)NCc1ccco1 | -2% | 23%[46.1 µM] | 7% | -9% | nt | nt | ? | 0%
Cc1ccc(Cl)cc1N1CCN(C(=O)c2cc(S(=O)(=O)N3CCCCC3)cn2C)CC1 | nt | 5%[46.1 µM] | nt | 0% | -10% | 0.3% | nt | nt
Cn1c(=O)c2c(SCC(=O)NCCc3ccccc3)nc(C3CC3)nc2n(C)c1=O | -4% | nt | -1% | -25% | nt | nt | nt | -1%
COC(=O)c1ccccc1NC(=O)CN1CCC(C(=O)c2ccc3c(c2)OCCO3)CC1 | 7% | -22% | -13% | ? | -1% | -6.5% | -12% | 6%
CC(=O)O[C@]1(C(C)=O)CCC2C3CCC4=C/C(=N/OCC(=O)O)CC[C@]4(C)C3CC[C@@]21C (stereo partly drawn) | -8% | nt | 0% | -20% | nt | nt | nt | -1%
COc1ccc(-n2cc(-c3ccccc3)c3c(SC(C)C(C)=O)ncnc32)cc1 (stereo not drawn) | nt | 25%[46.1 µM] | nt | -25% | -4% | -1.3% | 25%[46.1 µM] | nt
Cc1ccc(NC(=O)c2sc3ncnc(N(C)C4CCCCC4)c3c2C)cc1 | nt | 1%[46.1 µM] | nt | -35% | 0% | -3.0% | nt | nt
C=CC(=C)CC(NC)c1ccccc1 (stereo not drawn) | -7% | 18%[14.3 µM] | 1% | -19% | 6% | 4.4% | 10% | 4%
COc1ccc2ccccc2c1C1NC(=O)NC(C)=C1[N+](=O)[O-] (stereo not drawn) | 0% | nt | 8% | -12% | nt | nt | nt | 3%
CCOC(=O)c1nc(S(C)(=O)=O)ncc1N1CCOCC1 | 6% | -24% | 4% | nt | 0% | 6.3% | -2% | 7%
COc1ccc(CNCCc2ccc(Cl)cc2)c(OC)c1OC | -23% | nt | 5% | -13% | nt | nt | nt | -11%
C=CCN(C(=O)CNC(=O)c1ccco1)C(C(=O)NC1CCCC1)c1cccs1 (stereo not drawn) | -2% | -23%[46.1 µM] | 2% | -14% | nt | nt | ? | 0%
Cc1nnsc1SCC(=O)O | 5% | -6% | -2% | 12% | -3% | 4.1% | 13% | 3%
Cc1ccc(-n2c(CC#N)n[nH]c2=S)c(C)c1 | -3% | ? | 1% | 5% | nt | nt | 25% | 2%
Cc1noc(C)c1S(=O)(=O)NCCc1csc2nc(-c3ccc(Cl)cc3)nn12 | nt | -1%[46.1 µM] | nt | -2% | ? | -6.8% | nt | nt
C=CCN1CCN(C(=O)CCc2ccccc2)CC1 | -13% | -12% | 10% | 12% | nt | nt | -3% | 16%
Clc1ccc(CN2CCc3nc(Nc4ccc5c(c4)OCCO5)ncc3C2)cc1 | nt | -22%[46.1 µM] | nt | 0% | ? | -12% | nt | nt
COc1cc(Cl)c(NS(=O)(=O)c2ccc(-c3ccc(=O)[nH]n3)o2)c(OC)c1 | 4% | 18%[46.1 µM] | -4% | -11% | nt | nt | 17%[46.1 µM] | -5%
CN(C(=O)COC(=O)C1CCN(S(=O)(=O)c2c(Cl)cccc2Cl)CC1)C1CCCCC1 | -3% | 6% | nt | 1% | nt | nt | -4%[46.1 µM] | -9%
O=C(CSc1n[nH]c(-c2ccco2)n1)N1c2ccccc2Sc2ccccc21 | 8% | 6% | -20% | 3% | -18% | -6.6% | -8% | -13%
COc1ccccc1NC(=O)Cn1c2ccccc2c2nc3n(c(=O)c21)CCS3 | -10% | -12% | nt | -7% | nt | nt | -28% | 4%
COc1cc(S(=O)(=O)N2CCN(C(=O)c3ccccc3F)CC2)c(OC)cc1NC(C)=O | 14% | -7% | 3% | -30% | -2% | 4.4% | ? | 16%
COc1ccccc1N1CCN(Cc2ccc(OC)c3ccccc23)CC1 | -2% | -14% | 9% | -21% | 0% | 2.8% | ? | -9%
